Screening results as filed in PubChem BioAssay.
ClpP mod – qHTS Assay for Activators of ClpP | hit rate 1.9% among 340,000 | purified B. subtilis ClpP, FRET peptide cleavage, 20 min | ATP-dependent Clp protease proteolytic subunit (Bacillus subtilis (strain 168)), P80244 | Potency, µM (top dose mostly 57.5 µM), inactives show at the top dose activity change, negative = active; active = well fitted falling curve with a large enough effect; inconclusive = small, poorly fitted or top-dose-only effect; inactive = no such curve, though single readings can be large or run the other way; also: the source files actives as falling curves though it sought activators and does not explain the sign; nearly all actives have a fitted effect of over 65% in size; many hits overshoot -100%
Target sequence (P80244 whole entry, looked up): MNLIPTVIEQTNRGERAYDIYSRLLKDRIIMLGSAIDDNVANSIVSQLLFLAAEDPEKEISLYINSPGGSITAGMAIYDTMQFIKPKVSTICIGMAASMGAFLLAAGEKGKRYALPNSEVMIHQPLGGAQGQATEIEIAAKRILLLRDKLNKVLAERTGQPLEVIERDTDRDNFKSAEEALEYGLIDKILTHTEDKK
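Purified B. subtilis ClpP, 10 microg/mL final in Tris/HCl pH8 with KCl, BSA, glycerol and Tween-20, cleaved an Abz/nitrotyrosine-quenched decapeptide. Fluorescence (ex 320, em 430) was read at 0 and 20 min at room temperature. Delta was normalized to 5.8 microM ADEP and DMSO/no-enzyme controls.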
PINK1 expr mod – A Quantitative High throughput Screen to Identify Chemical Modulators of PINK1 Expression; PINK1 immunofluorescence, high-content cytometry, 24 h; Potency, µM (highest dose often 76.6 µM), for the others: top-dose activation (PINK1 increase), hits mostly activators; hit rate 0.2% among 410,000; active = well fitted activation curve with a large enough effect; inconclusive = small, poorly fitted or top-dose-only effect; inactive = flat fitted curve, though single readings scatter; cell line not stated here;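 also: % of control where 0% means no effect; nearly all actives have a fitted effect of over 65% in size; a mitochondrial uncoupler was the plate control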
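Cells are seeded, rested 12 hours, then given compound at five concentrations or DMSO for 24 hours. After fixation, blocking and antibody staining, PINK1 amount and mitochondrial localization are scored; CCCP serves as control.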
Active calls of the source: *; ? = inconclusive. Potency is read from the fitted curve at half-maximal effect. These rows are one share of the data. The share of hits here may be higher or lower than overall.

SMILES | ClpP mod | PINK1 expr mod
C(=Nc1cnc2ccccc2c1)c1ccncc1 | 4.0% | 0.7%
Cc1ccc(-n2ncc3c(N4CCCCCC4)ncnc32)cc1C | -17% | 2.4%
CC(C)c1ccc(Nc2ncnc3onc(-c4ccc(F)cc4)c23)cc1 | 22µM* | 3.4%
CCc1ccc(-c2nc3c(c(SCc4ccccc4)n2)Cc2c(CO)cnc(C)c2O3)cc1 | -4.9% | -0.7%
CCOC(=O)C1CCC(CN(Cc2ccccc2)S(=O)(=O)c2ccc(Br)cc2)CC1 (stereo not given) | -1.9% | -1.1%
CN(Cc1ccccc1)C(=O)[C@@H]1CCCN1C(=O)[C@@H]1CCCN1C(=O)c1cccs1 | -2.5% | 1.3%
Cc1oc(-c2cccc(Cl)c2)nc1CS(=O)(=O)CC(=O)NCc1ccccc1Cl | -14% | 1.7%
O=C(NC1CCCCC1)C1c2ccccc2OCC(=O)N1Cc1ccccn1 (stereo not given) | -4.7% | -0.8%
COc1cc(C2C(C(=O)Nc3ccccc3)=C(C)Nc3nnnn32)cc(OC)c1OC (stereo not given) | -3.9% | 3.1%
Cc1ccc(Cl)cc1Nc1nn2c(=O)c3ccc(C(=O)N4CCCC(C)C4)cc3nc2s1 (stereo not given) | -11% | 1.7%
O=C(COc1ccc(F)cc1)NCc1ccc2c(c1)CCN2C(=O)c1ccccc1 | -4.0% | 0.8%
CCOC(=O)c1cc(-c2ccccc2)n(CCC(=O)Nc2ccc(C(F)(F)F)cc2)c1C | -3.9% | 40µM*
CCCCNC(=O)C1=CC(c2ccc3c(c2)OCO3)=NS(=O)(=O)N1C | -1.6% | -0.4%
CC(C)c1ccc(C2NC(=O)c3n[nH]c(-c4cccs4)c32)cc1 (stereo not given) | -5.6% | 3.7%
CCOc1ccc2nc(N(Cc3cccnc3)C(=O)c3ccc4c(c3)OCCO4)sc2c1 | 250% | -0.4%
Cc1nn(C)c2c1c(C(F)(F)F)cc(=O)n2CC(=O)N1CCN(c2ccccc2F)CC1 | -16% | -0.3%
Cc1cc(-c2ccc(S(=O)(=O)Nc3ccccc3C)cc2)on1 | -1.0% | 7.1%
Cn1cc(C(=O)N2CCN(c3cccc(Cl)c3)CC2)c(=O)c2cc(S(=O)(=O)N3CCCC3)ccc21 | -1.0% | 3.3%
O=C(CSC1=Nc2ccccc2C2=NC(Cc3ccccc3)C(=O)N12)Nc1cccc(Cl)c1 (stereo not given) | 4.3% | 0.0%
CCc1ccccc1NNC(=O)c1sccc1Cl | -0.1% | 0.5%
CCN(C(=O)Cn1c(SCc2ccccc2F)nc2cccnc21)c1ccccc1 | ? | 0.9%
Cc1ccc(CNC(=O)Cn2c(=O)cc(-c3ccccc3)c3c(C)nn(C)c32)cc1 | 3.8% | -0.9%
Cn1c(=O)c2cc(C(=O)NCCCN3CCN(c4ccc(F)cc4)CC3)sc2c2ccccc21 | ? | 0.6%
COc1cc2c(NC3CCN(C(C)C)CC3)nc(N3CCCN(C)CC3)nc2cc1OCCCN(C)C | 4.8% | -1.1%
CCCCCNC(=O)C1CCC(Cn2c(=O)c3sccc3n(CC(=O)N3CCCC3)c2=O)CC1 (stereo not given) | 1.3% | -0.2%

3 entries from above, set out differently:
Cc1oc(-c2cccc(Cl)c2)nc1CS(=O)(=O)CC(=O)NCc1ccccc1Cl
  ClpP mod = -14%; PINK1 expr mod = 1.7%

CCCCNC(=O)C1=CC(c2ccc3c(c2)OCO3)=NS(=O)(=O)N1C
  ClpP mod = -1.6%; PINK1 expr mod = -0.4%

COc1cc2c(NC3CCN(C(C)C)CC3)nc(N3CCCN(C)CC3)nc2cc1OCCCN(C)C
  ClpP mod = 4.8%; PINK1 expr mod = -1.1%

Later entries:
SMILES | ClpP mod | PINK1 expr mod
COc1ccc(CCNC(=O)C2CCCN(S(=O)(=O)c3ccc4c(c3)oc(=O)n4C)C2)cc1OC (stereo not given) | -0.5% | -0.5%
COc1ccccc1NC(=O)c1oc2ccccc2c1NC(=O)c1cccc(OC)c1OC | ? | 5.4%
O=C(NCCCc1nc2ccccc2n1Cc1ccc(Cl)cc1)C1CCCCC1 | 2.0% | 11%
CCCCNC(=O)c1ccc2c(c1)N(CC)C(=O)c1ccccc1S2 | 0.6% | 6.3%
O=C(NC1CC1)c1ccc2nc(-c3ccco3)c(-c3ccco3)nc2c1 | -21% | -1.0%
CN1C(=O)c2[nH]nc(-c3ccc(F)cc3)c2C1c1ccccn1 (stereo not given) | 0.9% | 0.3%
Cc1c(-c2nsc(NC(=O)c3cccs3)n2)nnn1-c1ccc(Cl)cc1 | -21% | 6.0%
Cc1ccc(NC(=O)C2CCCN(c3cnccn3)C2)cc1Cl (stereo not given) | -12% | -0.9%
Cn1nnc2c(N3CCCCC3)ncnc21 | 0.2% | 0.7%
Clc1ccccc1-c1nc(Nc2ccccc2)nc2ccc(Br)cc12 | 2.6% | 19%
O=C(CSc1nnc(-c2ccncc2)n1-c1ccccc1)Nc1ccc(F)cc1 | -2.8% | 0.6%
CC1CCc2nn(CC(=O)Nc3ccccc3Cl)cc2C1 (stereo not given) | -0.6% | 2.7%
COc1cc2c(cc1OC)n(CC(=O)c1cccc(Cl)c1)c(=O)n1nc(CCn3nc(C)cc3C)nc21 | -1.8% | 0.1%
O=C(Nc1ccc2nc(SCC(=O)N3CCCC3)sc2c1)c1cccc(Br)c1 | ? | -0.9%
Cc1cc(Br)ccc1NC(=O)COc1cc(=O)n(C)c2ccccc12 | -3.3% | 3.8%
Cc1ccc2c(c1)-c1c(c(C(=O)NCCc3ccccc3)nn1C)CS2 | -0.1% | 3.0%
CC(C)N(Cc1ccccc1)C(=O)c1cc2ccc3cccnc3c2[nH]1 | -3.7% | -1.1%
COc1ccc(OCC(=O)Nc2ccc3nn(-c4ccc(OC)cc4)nc3c2)cc1 | 4.1% | -0.3%
COc1cccc(CNC(=O)c2ccc(NC(=O)N3CC(C)Sc4ccccc43)cc2)c1 (stereo not given) | -3.8% | -0.9%
CCOc1ccc(CCNC(=O)c2ccc3c(c2)N(Cc2ccccc2F)C(=O)c2ccccc2S3=O)cc1OCC (stereo not given) | -2.0% | -0.1%
COc1cccc(C(=O)c2cn(CC(=O)NCCc3ccccc3)c3nc(C)ccc3c2=O)c1 | 1.1% | 0.5%
Cc1ccc(Cc2nc3ccccc3nc2SCC(=O)NCCc2ccccc2)cc1 | -3.7% | 7.2%
CCCSc1oc(-c2cccs2)nc1S(=O)(=O)c1ccc(C)cc1 | 4.4% | 1.1%
CC(C)(C)OC(=O)N1CCCN(C(c2ccnc3ccccc23)c2nnnn2-c2ccc3c(c2)OCCO3)CC1 (stereo not given) | -3.2% | 3.6%
Cc1ccc(-n2ncc(C(=O)N3CCN(c4cccc(C)c4)C(C)C3)c2C2CCN(C(=O)OC(C)(C)C)CC2)cc1 (stereo not given) | 0.0% | 1.3%

(more compounds)
smiles | ClpP mod | PINK1 expr mod
CCCOc1ccc(C2c3c(-c4ccccc4O)n[nH]c3C(=O)N2Cc2cccnc2)cc1 (stereo not given) | -3.9% | -2.1%
COc1ccc(NC(=O)CSc2nc(-c3ccco3)nc3cc(=O)[nH]n23)cc1 | -0.9% | 0.1%
COc1ccccc1CCNC(=O)c1ccc2c(c1)c(C)c(C)n2C | -9.1% | -0.2%
C=C1C(=O)CC2=C1[C@](Cc1ccc(F)cc1)(C(=O)OC)N(C(=O)c1ccccc1)C2 | -0.7% | 6.8%
CC(C)c1nn2c(=O)cc(COC(=O)c3ccccc3NC(=O)c3cccc(Cl)c3)nc2s1 | 10µM* | 1.2%
Cc1ccc(-c2nnc(Nc3cccc(Cl)c3)c3ccccc23)cc1S(=O)(=O)N1CCCCC1 | -26% | 0.0%
COc1ccccc1N=C1SC(C(=O)Nc2ccccc2OC)CC(=O)N1C (stereo not given) | -1.9% | 0.7%
COCCCNC(=O)C[C@@H]1C[C@@]2(C(=O)OC)CCCCC=C2N(Cc2ccc(Cl)cc2Cl)C1=O | 0.3% | 0.6%
CC(NC(=O)c1ccccc1NC(=O)c1nsc2ccccc12)c1ccccc1 (stereo not given) | -6.6% | -0.3%
Cc1cc(C)cc(-n2ccn(CC(=O)Nc3ccccc3F)c(=O)c2=O)c1 | 0.9% | 1.2%
Cc1csc2nc(COc3cccc(NC(=O)c4ccccc4F)c3)cc(=O)n12 | ? | ?
CCC1Oc2ccc(C)cc2N(CC(=O)NCc2ccc(F)cc2)C1=O (stereo not given) | -3.8% | 5.1%
CNC(=O)c1c(NC(=O)Cc2coc3ccc(C)cc23)sc2c1CCCC2 | -4.6% | 0.8%
CC(C)c1ccc(S(=O)(=O)c2nnn3c2nc(N2CCOCC2)c2sccc23)cc1 | -28% | 1.2%
Cn1c(=O)c2c(nc(NCc3ccccc3)n2Cc2ccc(Cl)c(Cl)c2)n(C)c1=O | -0.8% | 0.4%
CCN(Cc1ccccc1)c1ncnc2c1cnn2-c1ccc(F)cc1 | ? | 2.6%
COc1ccccc1NC(=O)c1oc2ccccc2c1NC(=O)C(C)C | 3.6% | -1.4%
COC(=O)c1c(-c2ccc(Cl)cc2)noc1N1CCN(c2ccccc2OC)CC1 | 1.0% | -0.9%
COc1cccc(Cn2c(=O)n(-c3cc(C)cc(C)c3)c(=O)c3oc4ccccc4c32)c1 | 35µM* | -0.4%
Cc1cccc(NC(=O)N2CCN3CCCCC3C2)c1C (stereo not given) | 0.7% | -1.0%
CCOc1ccc(NCc2cccn2-c2nnc(N3CCC(C(=O)NCc4cccc(OC)c4)CC3)s2)cc1 | -5.2% | 1.4%
COc1ccc(CCNC(=O)CCCn2c(=O)c3ccccc3n(Cc3cccc(Cl)c3)c2=O)cc1OC | 0.9% | 3.0%
COc1cccc(-c2nc3nc(C)cc(C)n3c2Nc2c(C)cccc2C)c1 | 0.5% | 4.7%
Cc1nnc(NC(=O)CSCc2cc(=O)c3ccc(C)c(C)c3[nH]2)s1 | -9.2% | -0.7%
O=C(c1cccc([N+](=O)[O-])c1)N1CCN(CCc2ccncc2)CC1 | 0.4% | 1.2%
Cc1ccc(C(=O)Nc2ccc(C(=O)OCc3cc(=O)n4ccsc4n3)cc2)cc1 | -9.2% | -1.1%
CCOc1ccccc1CNC(=O)c1cnc2sc(N3CCCCCC3)nn2c1=O | 3.2µM* | 1.2%
CN1CCN(C(=O)c2cnn(-c3ccc(F)cc3F)c2C2CCN(C(=O)OC(C)(C)C)CC2)CC1 | -0.9% | -0.2%
COc1ccc(N(C)C(=O)C2CCN(S(=O)(=O)c3cc(Br)cc4c3N(C(C)=O)CC4)CC2)cc1 | 0.4% | 0.6%
Cc1ccc(S(=O)(=O)N2CCN(c3nc(Nc4ccccc4O)nc4ccccc34)CC2)cc1 | 2.1% | -0.3%

5 compounds drawn at random from those above, as already listed:
smiles | ClpP mod | PINK1 expr mod
CC(C)c1nn2c(=O)cc(COC(=O)c3ccccc3NC(=O)c3cccc(Cl)c3)nc2s1 | 10µM* | 1.2%
Cc1csc2nc(COc3cccc(NC(=O)c4ccccc4F)c3)cc(=O)n12 | ? | ?
Cc1ccc(-c2nnc(Nc3cccc(Cl)c3)c3ccccc23)cc1S(=O)(=O)N1CCCCC1 | -26% | 0.0%
COc1ccccc1N=C1SC(C(=O)Nc2ccccc2OC)CC(=O)N1C (stereo not given) | -1.9% | 0.7%
Cc1cccc(NC(=O)N2CCN3CCCCC3C2)c1C (stereo not given) | 0.7% | -1.0%

New compounds follow
smiles | ClpP mod | PINK1 expr mod
COc1ccc(C)cc1NC(=O)c1oc2ccc(S(=O)(=O)N3CCCCC3)cc2c1C | -1.9% | 0.3%
O=C1Cc2cc(S(=O)(=O)Nc3ccc(OC(F)(F)F)cc3)cc3c2N1CCC3 | 1.5% | 7.4%
O=C(COc1ccccc1)NCCc1csc(-c2ccc(Cl)cc2)n1 | -3.7% | 0.0%
COc1ccc(-c2nnc(SCC(=O)N3CCC(C)CC3)o2)cc1 | -0.4% | 1.5%
CCc1ccc(NC(=O)Cn2c(=O)n(Cc3nc(C)no3)c(=O)c3cc4c(cc32)OCO4)cc1 | -29% | -1.1%
Cc1c2cnn(-c3ccccc3)c(=O)c2c(C)n1CC(=O)NCc1ccccc1 | -3.8% | 0.8%
Cc1cccc(-c2nc(S(=O)(=O)c3ccccc3)c(N3CCN(c4ccccc4)CC3)o2)c1 | -8.9% | 2.0%
Cc1ccc(OCC(=O)Nc2cc3nn(-c4ccccc4)nc3cc2C)cc1 | -10% | 4.5%
Cc1cccc(S(=O)(=O)c2cn(C)c3cc(N4CCN(c5ccccc5)CC4)c(F)cc3c2=O)c1 | -4.6% | 7.9%
COc1ccc(NC(=O)C2CCCN(S(=O)(=O)c3c(C)[nH]c(=O)[nH]c3=O)C2)c(OC)c1 (stereo not given) | -2.1% | 1.0%
COc1ccc(Cn2ccnc2SCC(=O)Nc2ccc3c(c2)OCCO3)cc1 | -1.4% | -11%
CCOc1ccc(-n2c(-c3ccccc3)c(C)n3c4c(=O)n(C)c(=O)n(C)c4nc23)cc1 | 1.4% | 0.0%
CC1(C(=O)NC2CCCCC2)Cc2ccccc2C(=O)N1Cc1ccc(F)cc1 (stereo not given) | -1.8% | 0.4%
O=C(Nc1ccc2c(c1)N(C1CCCC1)C(=O)c1ccccc1S2)c1cccc(F)c1 | -24% | 1.5%
COC(=O)c1ccccc1NC(=O)CSc1nc2ccccc2nc1Cc1ccccc1OC | 2.1% | -2.8%
